Screening results from PubChem.
Vif TR-FRET – inhibitors of Vif binding to APOBEC3G peptide, primary screen, biochemical, TR-FRET, GST-Vif 1-94, biotin-A3G peptide, dose response retest (AID 1117319). hit rate 0.57% among 260,000. TR-FRET GST-Vif / biotin-A3G peptide binding; higher % means a stronger effect; test concentration not given here; strong numbers were not always called active. inhibition, %; hits with a dose series show IC50 in µM;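 active means above the screen mean plus three standard deviations and confirmed in dose response; inconclusive means results disagree or hit not tested in dose response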;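 further: Vif residues 1-94 fused to GST binding biotinylated APOBEC3G peptide 110-148; 0% = full assay without inhibitor and 100% = GST in place of GST-Vif; retest series ran down from 100 µM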
A1 inh – inhibitors of the anti-apoptotic protein A1, read as caspase activation. MEF A1-2A-BIM cells, Caspase-Glo 3/7 luminescence, 3 h; percent of clofoctol response, vehicle zero. caspase activation, % (concentration not given with the values). hit rate 0.066% among 330,000;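 active means over half of replicate activation scores above 10%, or exactly half above 10 with the replicate mean above 10; inconclusive means replicate mean below 10 yet half the replicates above 10; inactive means over half of replicates below 10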;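 further: wells of about 30 µL received 50 nL stock; many hits fall short of the cut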
LANA-H2B inh – blocks KSHV LANA binding to histone H2A/H2B; cell-free LANA-H2A/H2B peptide, fluorescence polarization; AID 2629; inhibition, % (concentration not given with the values); hit rate 0.6% among 320,000; Q9QR71; in the data active means inhibition mostly above about 10%, no sharp cut-off; inactive means mostly below about 6.7%;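 further: stock transfer was 7.5 nL into about 10 µL; 0% = median of vehicle wells and 100% = median of positive control wells; one replicate is shown; the record names a cut of 25% in any replicate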
HNF4A DNA FP – change in binding of human HNF4 alpha to DNA; activity change, % at 10 µM; HNF4a-FITC DNA binding, fluorescence polarization, 1 h; hit rate 0.3% among 360,000; P41235; in the data active means activity change above about 30%, passing the limit was not always enough;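 further: controls were the assay level and a saturating level of protein; the project sought stronger binding though the title names inhibitors; some compounds called inactive have numbers as strong as hits; positive values seem to mean higher polarization but the record does not say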
Target sequence (P41235 whole entry, looked up): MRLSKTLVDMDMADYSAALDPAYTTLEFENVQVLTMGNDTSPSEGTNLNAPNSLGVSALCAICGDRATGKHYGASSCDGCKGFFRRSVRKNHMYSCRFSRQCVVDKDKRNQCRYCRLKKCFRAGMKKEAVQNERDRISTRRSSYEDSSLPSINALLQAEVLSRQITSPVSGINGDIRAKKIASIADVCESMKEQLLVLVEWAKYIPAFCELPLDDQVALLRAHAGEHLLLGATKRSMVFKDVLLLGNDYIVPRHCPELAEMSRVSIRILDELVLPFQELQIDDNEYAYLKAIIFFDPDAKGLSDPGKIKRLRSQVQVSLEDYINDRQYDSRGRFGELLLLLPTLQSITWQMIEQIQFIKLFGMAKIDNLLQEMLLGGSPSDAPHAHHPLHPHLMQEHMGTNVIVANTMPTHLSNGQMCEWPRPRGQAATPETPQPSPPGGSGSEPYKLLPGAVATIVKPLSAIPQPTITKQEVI
Beta2AR agonist – human beta-2 adrenergic receptor agonism by FAP; Am2.2-beta2AR cells, FAP receptor internalization, flow cytometry; reference of the scale not given here; response, % (concentration not given with the values); hit rate 0.43% among 340,000;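 active means response above a set limit, near 3 SD of response in nonfluorescent compounds, cut at about 42% in these data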;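 further: stock transfer was 100 nL into about 11 µL; a reference agonist was the positive control; negative values mostly stem from fluorescent compounds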
Ecoli growth – blocks Escherichia coli growth; OD600 absorbance (test concentration not listed); hit rate 0.21% among 330,000; AID 1053175; OD600, 23 h; active compounds read low;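 active means OD600 absorbance below the run mean of sample wells minus 3.6 SD, in any replicate, cut at about 0.56 in these data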;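 further: stock transfer was 300 nL into about 60 µL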
UCH37 DUB inh – blocks the human deubiquitinase UCH37; purified proteasome/UCH37, Ub-AMC cleavage fluorescence; inhibition, % (no concentration beside the values); hit rate 0.33% among 330,000; AID 588478;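 active means mean of two replicates above 20%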;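 further: 0% = compound-free wells with enzyme and 100% = wells lacking proteasome; stock transfer was 100 nL into about 20 µL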
Target sequence (Q9Y5K5 whole entry, looked up): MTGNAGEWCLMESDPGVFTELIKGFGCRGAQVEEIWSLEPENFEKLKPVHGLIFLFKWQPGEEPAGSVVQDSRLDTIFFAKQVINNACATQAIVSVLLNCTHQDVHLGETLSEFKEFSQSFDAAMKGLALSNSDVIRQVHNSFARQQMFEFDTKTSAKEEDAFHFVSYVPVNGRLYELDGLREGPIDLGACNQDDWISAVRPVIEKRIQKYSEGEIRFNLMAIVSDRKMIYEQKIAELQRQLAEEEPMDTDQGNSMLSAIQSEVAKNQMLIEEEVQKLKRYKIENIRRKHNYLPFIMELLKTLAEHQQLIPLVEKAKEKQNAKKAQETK
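Material: human UCH37 enzyme supplied as purified proteasome complex. Measure: % inhibition of Ub-AMC cleavage fluorescence. Medium: pH 7.4 Tris-HCl (50 mM) with ovalbumin, ATP-MgCl2, DTT. Times: 30 min preincubation with enzyme, 25 min cleavage at room temperature. Detection: AMC fluorescence intensity at 355/460 nm.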
* = called active by the depositor; ? = inconclusive; . = not tested or not shown; + = active, no number.

SMILES	Vif TR-FRET	A1 inh	LANA-H2B inh	HNF4A DNA FP	Beta2AR agonist	Ecoli growth	UCH37 DUB inh
O=C(NCCc1cn2ccccc2n1)c1cc(COc2ccc3ncccc3c2)on1	.	1.0	-4.4	-1.1	23	0.64	4.0
O=C(CSc1ccccc1)Nc1ccc(N2CCOCC2)c(F)c1	-4%	-0.2	-3.0	1.9	5	0.71	5.6
C=CCn1c(COc2ccccc2F)nnc1SCC(=O)NC(=O)NCc1ccco1	14%	0.2	-4.0	-9.4	14	0.67	0.1
Cn1c(/C(C#N)=C/c2cccc(O)c2)nc2ccccc21	.	-0.6	-2.9	-2.5	14	0.67	1.8
NS(=O)(=O)c1ccc(NC(=S)NNC(=O)c2cccs2)cc1	4%	-0.4	-0.4	2.7	0	0.7	4.3
COc1ccccc1CNC(=O)Cn1c(=O)oc2cc(S(=O)(=O)N3CCCC3)ccc21	.	-0.1	-5.2	-3.8	14	0.72	8.5
CCCCNC(=O)CSc1nnc(-c2ccc(S(=O)(=O)N3CCCC3)cc2)n1C	-2%	0.4	4.9	0.8	2	0.67	1.8
COc1ccc(C(=O)COC(=O)[C@H](C)NS(=O)(=O)c2ccc(NC(C)=O)cc2)cc1OC	.	.	.	1.0	6	0.65	5.6
O=C(CN1C(=O)S/C(=C\c2ccccn2)C1=O)Nc1ccccc1	.	0.1	-3.6	2.9	-5	0.71	3.8
O=C1[C@H]2[C@H](ON3CCCC[C@H]23)C(=O)N1c1cccc(C(F)(F)F)c1	28%	0.0	-0.8	-3.8	2	0.64	0.3
COc1ccc([C@H]2CC(=O)C=C(c3cc(F)ccc3OC)C2)cc1	.	0.1	1.4	-2.0	-17	.	2.3
Cc1nn(C(C)C(=O)O)c(C)c1[N+](=O)[O-] (stereo not drawn)	.	-0.4	1.5	-2.7	8	0.69	2.9
Cc1ccc([C@H]2C(C(=O)O)=CC[C@@H](c3ccc(C)cc3)N2S(=O)(=O)c2ccc(C)cc2)cc1	-10%	-0.6	+	-0.9	-1	0.66	1.3
CCC(Sc1nc2ncccc2[nH]1)C(=O)NC1CCCC1 (stereo not drawn)	.	-0.3	-1.8	-2.0	-5	0.74	5.8
CCOC(=O)C1(Cc2cccc(OC)c2)CCN(Cc2cccn2-c2nccs2)CC1	15%	-0.4	3.1	3.5	-2	0.7	0.5
CC(=O)Nc1ccc(C(=O)n2nc(C)cc2C)cc1	-7%	-1.1	1.4	2.0	5	0.65	4.7
N=c1n(CC(=O)c2ccc([N+](=O)[O-])cc2)c2ccccc2n1Cc1ccc(Cl)cc1	-6%	-1.3	-6.1	40*	91*	0.69	13
O=C(NC(=O)c1c(Cl)cccc1Cl)Nc1ccc(Oc2cccnc2)nc1	-5%	0.7	-12	1.4	-4	0.7	5.0
Cc1nnc(SCC(=O)NCC2CCCO2)n1-c1ccccc1 (stereo not drawn)	-2%	2.9	-3.3	-1.0	-2	0.69	4.0
COc1cccc(C(C(=O)NC(C)(C)C)N(C(=O)CCC(=O)Nc2cc(C)on2)c2ccc3c(c2)OCCO3)c1OC (stereo not drawn)	.	0.7	-0.4	2.6	-4	0.66	1.8
CCCCCC1CCC(c2n[nH]c(=S)n2C)CC1 (stereo not drawn)	-1%	0.1	-0.4	0.3	-4	0.71	4.2
COc1ccc(Nc2ccccc2NC(=O)c2ccccc2Br)cc1	21%	1.5	6.3	1.0	-1	0.63	1.1
COC(=O)c1cc(S(=O)(=O)NCC2CCN(CCc3cccs3)CC2)c[nH]1	.	-0.6	4.3	0.5	5	0.68	0.0
COc1ccc2[nH]c(=O)c(CN(CCO)S(=O)(=O)c3c(C)ccc4nsnc34)cc2c1	4%	-0.6	4.4	-3.6	-2	0.7	6.1
COc1ccc(N)c2c1C(=O)c1ccccc1C2=O	-29%	-1.2	.	1.9	2	0.66	6.1
Cc1ccc(C(=O)Nc2nnc(CC(=O)N/N=C/c3ccc(O)c(O)c3)s2)cc1	.	-0.1	-3.7	-39	12	.	.
COc1ccc(-c2csc(N3CCN(c4cc5c(cc4Cl)nc(-c4ccncc4)n5CCOCCO)CC3)n2)cc1	.	0.0	1.1	12	7	0.69	0.7
NC(=O)C1CCN(C(=O)c2ccc(Oc3cc(Cl)cc(Cl)c3)o2)CC1	.	0.2	-0.4	4.1	-2	0.68	1.4
CCc1ccc2[nH]c(=O)c(CN(CCN(C)C)C(=S)NCc3ccco3)cc2c1	2%	1.2	3.4	14	1	0.7	-7.2
O=C(Nc1ccccc1)N1CCCN(c2nccc(C(F)(F)F)n2)CC1	28%	-0.4	2.4	5.3	1	0.71	1.3
COc1ccc(C2=NO[C@@H]3C(=O)N(C4CCCCC4)C(=O)[C@H]23)cc1OC	5%	0.9	0.1	0.8	-1	0.73	4.2
Cn1c(C(=O)NC2CC2)cc2c(=O)n(C)c3ccccc3c21	1%	-1.3	-5.4	4.9	-18	0.72	1.9
COC1=CC(=O)c2c(ccc3ncnc(N)c23)C1=O	68%	.	.	-6.1	-29	.	.
CC(C)Cn1c(SCC(=O)N2CCN(C(=O)c3ccco3)CC2)nc2ccccc2c1=O	0%	1.7	-0.5	0.0	-6	0.64	3.3
O=C(Oc1ccc(N(Cc2cccs2)C2=NS(=O)(=O)c3ccccc32)cc1)c1ccccc1Cl	-8%	-0.6	2.1	-1.6	-3	0.78	-8.4
Cc1nnc2ccc(N3CCN(C(=O)c4ccccc4)CC3)nn12	3%	-0.4	5.8	1.2	3	0.73	5.9
c1ccc(-n2cnc3cc(NCc4ccccn4)ccc32)cc1	9%	1.0	1.7	-1.7	-11	0.69	3.0
O=C1C(=C2SCCCS2)CC/C1=C\c1ccc(F)cc1	1%	-6.5	-1.8	-0.1	10	0.79	-3.0
COc1ccc(NC(=O)c2cccc(N3C(=O)NC4CC3(C)Oc3ccccc34)c2)cc1 (stereo not drawn)	2%	0.3	1.0	5.2	-2	0.68	4.3
CC(=O)NCC(=O)N(C)C(C(=O)Nc1ccc2c(c1)OCCO2)c1ccccc1 (stereo not drawn)	25%	0.2	1.0	0.9	-12	0.72	2.2
CCCCn1c(SCC(=O)N2c3ccccc3Sc3ccccc32)nc2c1c(=O)n(C)c(=O)n2C	23%	-1.2	1.8	-1.3	19	0.71	2.8
CC1CCN(C(c2nnnn2CCc2ccccc2)C(C)C)CC1 (stereo not drawn)	11%	0.1	0.8	0.5	4	0.64	-2.3
O=C(NCc1cccc(CNC(=O)Nc2cccc(O)c2)c1)Nc1cccc(O)c1	-1%	0.2	0.8	-2.8	1	0.6	2.2
O=C(C[C@H]1C[C@H](C(=O)N2CCCCC2)[C@@]2(CCc3ccccc3)c3[nH]c4ccc(Cl)cc4c3CCN2C1=O)NCCc1ccccn1	2%	.	.	-1.2	5	0.75	-0.7
CC(C)C(=O)N1CCN(c2ccc(NC(=S)NC(=O)c3cc4ccccc4o3)cc2)CC1	.	-0.3	3.5	-0.6	-9	0.74	1.9
COCCCN(CCCN)Cc1ccco1	.	-0.1	-1.9	1.4	2	0.69	3.8
O=C(c1cc(COc2c(F)cccc2F)on1)N1C[C@H]2CC[C@H]1C2	.	-0.8	-0.6	-6.3	-12	0.7	4.8
N#CC(c1ccccn1)c1ncc(C(F)(F)F)cc1Cl (stereo not drawn)	2%	1.9	-0.5	-3.5	-3	0.66	-0.1
CC1(NC(=O)Nc2cccc(Br)c2)CCS(=O)(=O)C1 (stereo not drawn)	0%	0.5	-2.2	2.9	2	0.71	-1.7
Cc1ccn2c(=O)nc(SCC(=O)N3CCCc4ccccc43)nc2c1	8%	0.0	.	-0.4	11	0.69	2.4
Cn1ccc(C(=O)NC(=S)N2CCSCC2)n1	.	1.1	0.6	3.1	-9	0.65	1.8
COc1cc(C)c(Cc2cnc(N)nc2N)cc1OC	4%	-0.7	-5.0	.	.	.	.
COc1ccc(C(=O)c2oc3ccc(OC)cc3c2NC(C)=O)cc1	2%	-0.4	.	2.1	4	0.74	-2.5
COC(=O)c1ccc(C(=O)OC)c(NC(=O)COC(=O)C2CC2C)c1 (stereo not drawn)	1%	0.1	21*	-1.9	15	0.7	-15
O=C(N/N=C(/CC(=O)c1cccs1)C(F)(F)F)c1ccc(O)cc1	-4%	1.2	3.4	-2.1	1	.	.
COc1ccc2c3c([nH]c2c1)C1(NCC3)C(=O)Nc2ccccc21 (stereo not drawn)	25%	0.9	6.2	3.8	1	0.71	5.0
CCC(CC)NC(=O)CN(c1ccccc1OC)S(=O)(=O)c1cccs1	.	1.6	1.7	0.6	2	0.7	3.7
Cc1nn(C(C)C(=O)NC2CC2)c(=O)c2nn(-c3ccccc3)c(C)c12 (stereo not drawn)	.	-0.6	3.1	-3.1	5	0.65	3.4
CCCn1cc(S(=O)(=O)c2ccc(Cl)cc2)c(=O)c2cc(OC)ccc21	0%	-0.2	1.1	-3.2	10	0.7	-10
COc1ccc(-c2n[nH]c(C)c2-c2ccc(OC)c(OC)c2)c(O)c1	27%	0.3	3.5	-0.5	9	0.68	6.1

In the list so far, these have a COOH group.
SMILES	Vif TR-FRET	A1 inh	LANA-H2B inh	HNF4A DNA FP	Beta2AR agonist	Ecoli growth	UCH37 DUB inh
Cc1nn(C(C)C(=O)O)c(C)c1[N+](=O)[O-] (stereo not drawn)	.	-0.4	1.5	-2.7	8	0.69	2.9
Cc1ccc([C@H]2C(C(=O)O)=CC[C@@H](c3ccc(C)cc3)N2S(=O)(=O)c2ccc(C)cc2)cc1	-10%	-0.6	+	-0.9	-1	0.66	1.3

(cont.)
SMILES	Vif TR-FRET	A1 inh	LANA-H2B inh	HNF4A DNA FP	Beta2AR agonist	Ecoli growth	UCH37 DUB inh
CN(C)CCCN=C(NO)c1ccc(Cl)cc1Cl	10%	0.9	1.0	0.4	3	0.64	2.4
Cc1ccc(SCC(=O)NC2CCS(=O)(=O)C2)cc1 (stereo not drawn)	-9%	0.2	7.7	2.7	0	0.73	2.7
O=C(CSc1ccc(Br)cc1)NCC1(N2CCCCC2)CCCCC1	-6%	.	.	0.4	8	0.68	2.8
CCc1ccc(-c2ccc3nnc(SC)n3n2)cc1	-5%	1.3	-0.4	-0.5	-5	0.69	-17
O=C(NNC(=O)c1cc(C(F)(F)F)cc(C(F)(F)F)c1)c1ccc(Cl)cc1	-2%	?	-1.1	-0.2	8	0.68	4.5
Cc1ccc2ccc3ccc(C)nc3c2n1	.	-0.7	-13	-3.1	-249	0.59	1.5
O=C(Cc1c(F)cccc1Cl)Nc1cccc(S(=O)(=O)NC2=NCCCCC2)c1	4%	0.6	7.9	0.8	-4	0.68	4.4
COC(=O)Cn1ncc(N2CC(C)OC(C)C2)c(Cl)c1=O (stereo not drawn)	.	-0.3	3.7	0.1	-2	0.67	7.9
COc1ccc(C2=NN(C(=O)C(O)c3ccccc3)C(O)(C(F)(F)F)C2)cc1 (stereo not drawn)	.	0.8	-0.8	0.4	-3	0.7	0.7
O=c1[nH]c(N2CCOCC2)nc2ccccc12	.	0.4	-5.3	-1.5	3	0.66	-44
COc1ccc(/C=C/C(=O)OCC(=O)Nc2ccc(Cl)cc2F)cc1S(=O)(=O)N1CCOCC1	-3%	1.1	1.0	-1.8	-2	0.71	5.8
Cc1noc2ncnc(Oc3ccc(C(C)(C)C)cc3)c12	-4%	0.0	-0.1	-1.4	16	0.67	-2.0
Cn1c(CNC(=O)c2ccc3c(c2)OCO3)nnc1SCC(=O)Nc1ccc(F)cc1	.	-0.2	-2.5	0.6	1	0.68	3.1

Quoted from the listing.
Ecoli growth, CN(C)CCCN=C(NO)c1ccc(Cl)cc1Cl → 0.64
LANA-H2B inh, Cc1noc2ncnc(Oc3ccc(C(C)(C)C)cc3)c12 → -0.1
